2A StopGo – FMDV 2A StopGo reporter, luciferase signal; human cells with a luciferase reporter of 2A StopGo recoding; control for the full effect not named in the record; Potency, µM (titrated, usually from 57.9 µM), without a hit: at the top dose signal change, negative = less light; 410,000 tested, 1.2% active; active = well fitted falling curve with a large enough effect; inconclusive = small, poorly fitted or top-dose-only effect; inactive = no such curve, though single readings can be large or run the other way; tested in HEK293T cells; further: on the % scale 0 is the no-effect control and ±100 the full control effect; nearly all actives have a fitted effect of over 45% in size; luciferase light after 4 h
RE007 growth inh – less growth of the S. pombe RE007 Vpr strain | 360,000 tested, 0.21% active | Potency, µM (top dose mostly 92.2 µM), without a hit: at the top dose activity change, negative = less growth | S. pombe RE007 Vpr strain, BacTiter-Glo ATP luminescence, 24 h; control for the full effect not named in the record; active = well fitted falling curve with a large enough effect; inconclusive = small, poorly fitted or top-dose-only effect; inactive = no such curve, though single readings can be large or run the other way;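 further: on the % scale 0 is the no-effect control and ±100 the full control effect; nearly all actives have a fitted effect of over 50% in size; the assay follows cell death caused by Vpr and the record does not say whether a fall means rescue or toxicity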
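Fission yeast strain RE007, carrying one chromosomally integrated HIV-1 vpr copy, was seeded at OD 0.01 in PMG+AL medium with 23 nL pinned compound. After 24 h at 30 °C and 99% humidity, viability was read by BacTiter-Glo luminescence.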
NS1 function inh – inhibitors of influenza NS1 protein function; AID 2326; S. cerevisiae slowed by influenza A NS1, growth recovery by OD600; Potency, µM (highest dose often 46.1 µM), inactives show at the highest dose activity, positive = more growth; 270,000 tested, 0.4% active; active means well fitted rising curve with a large enough effect; inconclusive means small, poorly fitted or top-dose-only effect; inactive means no such curve, though single readings can be large or run the other way; further: nearly all actives have a fitted effect of over 50% in size
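Read-out: OD600 growth recovery of NS1-expressing budding yeast. Cells grown overnight at 30C in -URA glucose medium, washed, resuspended and diluted 1:100 in 2% galactose assay medium, pH 6.0. Same strain lacking NS1 served as positive control.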
Cruzain inh Det – cruzain (T. cruzi) inhibition with detergent; AID 1478; P25779; 200,000 tested, 0.43% active; Potency, µM, for inactives: max response, negative = inhibition, usual class: inhibitors; purified cruzain, Z-FR-AMC fluorescence, 0.01% Triton;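 further: plate controls were neutral wells for no effect and buffer without enzyme for full effect; nearly all actives have a fitted effect of over 40% in size; top concentration of the series not given in the record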
Target sequence (P25779 123-467 limits assumed): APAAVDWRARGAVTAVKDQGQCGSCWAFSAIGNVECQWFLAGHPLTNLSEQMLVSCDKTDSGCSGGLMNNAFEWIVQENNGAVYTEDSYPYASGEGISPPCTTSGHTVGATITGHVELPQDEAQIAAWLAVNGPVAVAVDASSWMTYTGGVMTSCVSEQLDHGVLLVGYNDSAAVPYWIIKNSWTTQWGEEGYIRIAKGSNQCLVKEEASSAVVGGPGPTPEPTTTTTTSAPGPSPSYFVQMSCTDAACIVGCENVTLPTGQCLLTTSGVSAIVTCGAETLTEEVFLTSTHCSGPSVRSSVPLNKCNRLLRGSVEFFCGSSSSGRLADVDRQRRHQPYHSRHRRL
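Read-out: AMC fluorescence (360 nm excitation, 450 nm emission), four reads over 2 min, first-to-third difference used. Conditions: cruzain 1.5 nM, Z-FR-AMC 2 uM, pH 5.5 acetate, 5 mM DTT, 0.01% Triton X-100.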
Lassa entry inh – blocks Lassa virus binding to or entry into cells; Lassa virus pseudotype entry inhibition, cell reporter; control for the full effect not named in the record; 300,000 tested, 1.2% active; Potency, µM (highest dose often 37.9 µM), for inactives: at the highest dose activity change, negative = inhibition, hits mostly inhibitors; AID 540256; active means well fitted inhibition curve with a large enough effect; inconclusive means small, poorly fitted or top-dose-only effect, or effect the other way; inactive means flat fitted curve, though single readings scatter; tested in HEK293 cells; further: on the % scale 0 is the no-effect control and ±100 the full control effect; nearly all actives have a fitted effect of over 50% in size; luciferase read-out
Cruzain inh noDet – cruzain (T. cruzi) inhibition without detergent | AID 1476 | Potency, µM, for inactives: max response, negative = inhibition, most hits filed as inhibitors | P25779 | purified cruzain, Z-FR-AMC fluorescence, no detergent | 200,000 tested, 2.3% active;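 further: plate controls were enzyme without inhibitor for no effect and buffer without enzyme for full effect; nearly all actives have a fitted effect of over 40% in size; top concentration of the series not given in the record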
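Detergent-free condition (0.00005% Triton X-100) in acetate buffer pH 5.5 with DTT. 1.5 nM enzyme and compound were pre-mixed 15 min, then 2 uM Z-FR-AMC substrate added; reaction progress from fluorescence change between first and third reads (60 s).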
SARS PLpro yeast – SARS-CoV PLP inhibition in yeast. S. cerevisiae expressing SARS-CoV PLpro, growth rescue; control for the full effect not named in the record. Potency, µM (top dose mostly 32.9 µM), for the others: top-dose activity, positive = growth rescue. 330,000 tested, 0.19% active; active means well fitted rising curve with a large enough effect; inconclusive means small, poorly fitted or top-dose-only effect; inactive means no such curve, though single readings can be large or run the other way; further: 0% is about no effect; nearly all actives have a fitted effect of over 55% in size; growth read by luminescence after 48 h
MARV entry inh – inhibitors of Marburg virus binding or cell entry; 300,000 tested, 1.8% active; AID 540276; Marburg virus pseudotyped entry inhibition, cell reporter; control for the full effect not named in the record; about a third of the inactives were read at about 46 µM; Potency, µM (top dose mostly 37.8 µM), without a hit: at the top dose activity change, negative = inhibition, hits mostly inhibitors; active = well fitted inhibition curve with a large enough effect; inconclusive = small, poorly fitted or top-dose-only effect, or effect the other way; inactive = flat fitted curve, though single readings scatter; tested in HEK293 cells; about a fifth of its hits are not listed in these tables; further: on the % scale 0 is the no-effect control and ±100 the full control effect; luciferase read-out
An asterisk follows results filed as active; ? = inconclusive; . = not tested or not shown; & = joins results of further samples; [ ] = another dose, or the depositor's remark. Unless noted, the call rests on the fitted dose curve; in most records, active means well fitted curve in the direction sought with a large enough effect; inconclusive means small, poorly fitted or top-dose-only effect, or another doubt; inactive means no such curve, though single readings can be large; an effect the other way counts as inactive or inconclusive. Potency means the concentration at half of the fitted maximal effect.

Values run as follows: 2A StopGo, RE007 growth inh, NS1 function inh, Cruzain inh Det, Lassa entry inh, Cruzain inh noDet, SARS PLpro yeast, MARV entry inh
> COc1ccc(C(=O)NCC(=O)OCC(=O)c2ccc3c(c2)OCCO3)cc1
→ 20.1%, 4.9%, 0.2%, 15.8µM*, 17.8%, 12.6µM*, 4.4%, 1.8%
> COC(=O)c1cnc(NNS(=O)(=O)c2ccc(C(F)(F)F)cc2)nc1C(F)(F)F
→ -5.7%, -20.4%, 0.9%, ., ., ., 0.6%, .
> CCOC(=O)/C=C(\C)Sc1cc(O)c2ccccc2c1O
→ 28.2µM*, 63.1µM*, -80.0%, ., ., ., -7.2%, .
> CCOC(=O)Cc1cc(-c2ccccc2)nc2ccc3ccccc3c12
→ -12.9%, 12.9%, 0.7%, -10.2%, 2.4%, 2.5%, -7.8%, ?
> O=C(COC(=O)c1ccccc1)Nc1ccccc1Sc1ccccc1
→ 0.0%, 4.3%, 2.6%, -5.8%, 6.8%, -6.3%, -11.1%, -7.2%
> Cc1ccccc1N1CC(C(=O)Nc2ccc(Br)cc2)CC1=O (stereo unspecified)
→ -3.5%, ., ., -0.4%, 7.0%[46.1 µM], -1.9%, ., 13.8%[46.1 µM]
> CC1CCCN(C(=O)COC(=O)Cc2c(F)cccc2Cl)C1 (stereo unspecified)
→ 28.6%, -1.9%, 9.1%, ., ?, ., 0.9%, -6.3%[46.1 µM]
> CCc1nnc(N/N=C/c2cc(Br)c(O)cc2O)n1N
→ 1.3%, -22.4%, -74.1%, ., ?, ., -6.3%, ?
> CN(C)c1ccc(/C=C(\C#N)C(=O)OCC(=O)N(C)C2CCS(=O)(=O)C2)cc1 (stereo unspecified)
→ 39.1%[activator], 4.8%, ., ., 5.3%, ., 7.7%, ?
> N/C(Cc1nc2ccccc2s1)=N\O
→ 21.3%, 1.6%, -0.2%, ., ?, ., -0.7%, ?
> CCOc1ccc(NC(=O)CN(C)C(=O)c2cc(S(=O)(=O)N3CCCCC3)ccc2C)cc1OCC
→ -7.2%, -9.3%, ., ., 2.8%, ., -1.9%, 22.3%
> CCOC(=O)c1c(C)[nH]c(C)c1S(=O)(=O)NCC(=O)Nc1ccccn1
→ 19.5%, 15.2%, 7.0%, ., ., ., 4.1%, .
> COC(=O)c1c(NS(=O)(=O)c2cccs2)sc2c1CCCC2
→ 18.1%, -9.2%, 8.5%, -3.0%, 13.7%, 5.3%, 0.9%, -0.9%
> CCc1ccc(NC(=O)CSc2nc3c(sc4ccccc43)c(=O)n2CCN(CC)CC)cc1
→ -30.0%, ., ., -2.0%, 28.2%[46.1 µM], 4.6%, ., .
> CCCCN1c2ccccc2N(CCCO)c2cc(C)nnc21
→ 10.7%, -6.4%, -247.8%, 3.2%, -34.4%, 7.1%, -42.7%, ?
> Cc1c(NC(C)c2cc(Cl)ccc2O)c(=O)n(-c2ccccc2)n1C (stereo unspecified)
→ 1.7%, 1.4%, 18.1%, -7.8%, 23.2%, 9.2%, 8.6%, 10.8%
> COc1ccc(-n2cc(C(=O)OCc3ccc(Cl)cc3)c3ccccc3c2=O)cc1
→ -22.6%, ., ., 0.4%, -20.1%[46.1 µM], -1.4%, ., .
> Cn1cc(CN2CCC[C@H]2CO)c(-c2cccc(Cl)c2)n1
→ -6.6%, -10.6%, -2.5%, ., ., ., -0.9%, .
> CC1SC(C)C(=O)N(CC(=O)NCc2ccc(F)cc2)C1=O (stereo unspecified)
→ 5.2%, 3.4%, -6.8%, -2.8%, ., 8.7%, 11.7%, 1.4%
> COc1cccc(C2Nc3ccc4ccccc4c3C3=C2C(=O)CC(C)(C)C3)c1OCC(=O)O (stereo unspecified)
→ -5.2%, 4.6%, -14.9%, ., ., ., -3.9%, .

Continued.
Values run as follows: 2A StopGo, RE007 growth inh, NS1 function inh, Cruzain inh Det, Lassa entry inh, Cruzain inh noDet, SARS PLpro yeast, MARV entry inh
> COc1ccc(NS(=O)(=O)c2cc(NS(=O)(=O)c3cccs3)ccc2C)cc1
→ 36.8%[activator], -12.8%, ., ., 16.0%, ., 1.1%, -12.6%
> CCOC(=O)/C(=C\Nc1ccc(OC(F)(F)F)cc1)Sc1ncc(C(F)(F)F)cc1Cl
→ ?, 17.6%, ?, -4.0%, -16.9%, -19.7%, -6.5%, 0.2%
> CCOc1ccc(CN2CCNC(=O)C2CC(=O)NCCc2cnccn2)cc1 (stereo unspecified)
→ -8.1%, 7.9%, 5.1%, ., ?, ., 5.1%, 9.6%[46.1 µM]
> COc1cc2c(cc1OC)C(=O)Cc1ccc3c(c1CN(C)CC2)OCO3
→ -17.4%&-24.1%, -23.8%, -5.5%, 3.4%&5.7%, ., -15.3%&-2.9%, 0.5%, .
> N#Cc1ccc(OCc2cccc(S(=O)(=O)N3CCOCC3)c2)cc1
→ 0.0%, 5.7%, ., ., -2.1%, ., -0.2%, ?
> COc1ccc(N2CCN(C(=O)c3cc(-c4ccc(C)c(F)c4)on3)CC2)cc1
→ -4.5%, ., ., -3.6%, -23.9%[46.1 µM], ?, ., -11.0%[46.1 µM]
> Cc1ccc(S(=O)(=O)N(C)CC(=O)Nc2ncccc2C)cc1
→ -10.9%, 1.1%, ., ., 16.7%, ., -1.5%, 0.4%
> COc1ccccc1N1CCSC1C(N)=O (stereo unspecified)
→ -8.0%, -11.1%, 7.1%, 7.9%, 7.3%, -2.4%, -7.2%, 2.5%
> O=C(NC1CCN(C(=O)N2CCOCC2)CC1)c1ccccc1
→ 1.5%, 17.3%, -6.6%, 5.9%, 2.9%, 7.5%, -3.6%, 15.5%
> Cc1ccc(-c2noc(-c3ccccc3NC(=O)C3CC(=O)N(c4ccccc4C)C3)n2)cc1 (stereo unspecified)
→ -8.6%, ., ., -4.3%, -7.7%[46.1 µM], 5.0%, ., -11.0%[46.1 µM]
> N#Cc1ccc(NC(=O)C2CC(c3ccc(F)cc3)=NO2)cc1 (stereo unspecified)
→ 45.4%[activator], -4.3%, 1.0%, 0.9%, 8.3%, -4.1%, -13.7%, 6.8%
> CCN1C(=O)C(CC(=O)Nc2cccc(C(C)=O)c2)S/C1=N\c1ccccn1 (stereo unspecified)
→ -19.3%, 7.7%, 0.4%, 2.5%, 17.6%, 17.7%, 0.2%, -26.2%
> CC(C)C(=O)N1CCN(c2ccccc2N)CC1
→ -20.9%, -11.1%, -54.7%, 2.9%, ., -0.5%, -4.6%, .
> CC(C)c1ccccc1NC(=O)Nc1ccc2c(c1)OCO2
→ 9.5%, -3.2%, -5.9%, ., ., ., -5.9%, .
> COc1ccc(NC(=O)NC2(C(=O)N3CCCCCC3)CCCCC2)cc1
→ 0.2%, 0.2%, -3.5%, 0.3%, 0.4%, 7.6%, 4.9%, ?
> C=CCN(c1ccccc1)S(=O)(=O)c1cccc(C(=O)NCc2ccncc2)c1
→ -1.2%, 10.8%, ., ., -10.3%, ., -3.4%, ?
> Cc1onc(-c2c(Cl)cccc2Cl)c1C(=O)c1c[nH]c(C(=O)NCC2CCCO2)c1 (stereo unspecified)
→ ?, -3.4%, ., ., 8.91µM*, ., -2.8%, ?
> CCOC(=O)c1cc2c(=O)n3ccccc3nc2n(C)c1=NC(=O)c1cc2ccccc2o1
→ 10.7%, ., ., 5.3%, 17.4%[46.1 µM], 3.8%, ., .
> C[C@@H](NCCc1ccc(O)cc1)[C@@H](O)c1ccc(O)cc1
→ -26.8%, -13.9%, 4.5%, -3.8%, ?, 9.1%, ., 43.0%&-23.0%&-23.0%&-23.0%
> COCCSc1nnc(NC(=O)CSc2ccccc2)s1
→ ., 6.3%, -47.0%, -1.2%, -13.0%, -14.2%, -5.6%, 4.6%

The final four records of the section above come first, to join the parts.
Values run as follows: 2A StopGo, RE007 growth inh, NS1 function inh, Cruzain inh Det, Lassa entry inh, Cruzain inh noDet, SARS PLpro yeast, MARV entry inh
> Cc1onc(-c2c(Cl)cccc2Cl)c1C(=O)c1c[nH]c(C(=O)NCC2CCCO2)c1 (stereo unspecified)
→ ?, -3.4%, ., ., 8.91µM*, ., -2.8%, ?
> CCOC(=O)c1cc2c(=O)n3ccccc3nc2n(C)c1=NC(=O)c1cc2ccccc2o1
→ 10.7%, ., ., 5.3%, 17.4%[46.1 µM], 3.8%, ., .
> C[C@@H](NCCc1ccc(O)cc1)[C@@H](O)c1ccc(O)cc1
→ -26.8%, -13.9%, 4.5%, -3.8%, ?, 9.1%, ., 43.0%&-23.0%&-23.0%&-23.0%
> COCCSc1nnc(NC(=O)CSc2ccccc2)s1
→ ., 6.3%, -47.0%, -1.2%, -13.0%, -14.2%, -5.6%, 4.6%
> COc1cc(OC)cc(C(=O)NCCSC2CCCCC2)c1
→ 4.0%, 18.6%, -10.8%, ., 22.0%[46.1 µM], ., -0.6%, 9.3%
> CCCNc1c(F)c(F)c2c(C)c3ccccc3nc2c1F
→ 53.0%[activator], -11.7%, -6.7%, -19.9%, ?, 0.9%, -19.7%, 17.0%
> CC(=O)N/C(=N/c1nc(C)cc(C)n1)Nc1ccc(NC(C)=O)cc1
→ 5.1%, -13.7%, -7.2%, -4.0%, -10.5%, -1.3%, 6.6%, -20.3%[46.1 µM]
> CCc1ccc(N2CC(C(=O)Nc3ccc(S(=O)(=O)N4CCCCC4)cc3)CC2=O)cc1 (stereo unspecified)
→ -14.2%, 1.3%, 18.0%, ., -11.9%, ., 2.5%, ?
> Cc1c(-c2cccc(Cl)c2)nc2ccccc2c1C(=O)N1CCC2(CC1)OCCO2
→ -24.4%, -7.6%, -0.6%, ., -11.4%, ., -12.0%, -2.2%
